PINK1 modulator = PINK1 expression modulation; PINK1 immunofluorescence, high-content cytometry, 24 h; AID 624263; Potency, µM (top dose mostly 76.6 µM), inactives show at the top dose activation (PINK1 increase), hits mostly activators; 410,000 compounds, 0.2% hits; active = well fitted activation curve with a large enough effect; inconclusive = small, poorly fitted or top-dose-only effect; inactive = flat fitted curve, though single readings scatter; cell line not stated here;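 note: potency is the fitted concentration of half-maximal effect; % of control where 0% means no effect; nearly all actives have a fitted effect of over 65% in size; a mitochondrial uncoupler was the plate control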
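A stable cell line was treated with compounds at 5 concentrations for 24 hours, with CCCP as control. PINK1 levels and mitochondrial localization were measured by immunofluorescence with mitochondrial, cell and nuclear markers after fixation, read by laser-scanning cytometry.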
TRPML1 inh = inhibitors of human TRPML1 channel. Q9GZU1. TRPML1-inducible cells, Ca2+ dye fluorescence, FDSS; active compounds read low; inhibition of EC80 agonist-evoked calcium signal. activity change, negative = inhibition, % (test concentration not listed). 390,000 compounds, 0.02% hits. AID 624415; in the data active means activity change below about -50%; inconclusive means about -30% to -50%; inactive means above about -30%;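 note: stimulus is agonist 54-4 at its EC80 concentration; % is set by controls: 0 for no effect and ±100 for the full control effect; compound concentration not given in the record; the text of the record puts the active cut at -80%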
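TRPML1-DL cells, Tet-induced overnight (~16 h, 37 °C) at 1,500 cells/well, were loaded with Ca8 no-wash dye plus quencher for 45-90 min at room temperature. Compounds were pinned during FDSS kinetic reading; agonist 54-4 at EC80 (4 uM final) then added.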
TRPML1 agonist = agonists of human TRPML1 channel; Q9GZU1; TRPML1-expressing cells, Ca2+ dye fluorescence, FDSS; host cell line not named in the record; reference of the full effect not given here; activation, % (test concentration not listed); 410,000 compounds, 0.12% hits; AID 624414; in the data active = activation above about 50%; inconclusive = about 30% to 50%; inactive = below about 30%; note: 0% is about no effect; the text of the record puts the active cut at 80%
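Calcium fluorescence on an FDSS kinetic reader gave the read-out. Tet-induced TRPML1-DL cells were plated overnight, dye-loaded (Ca8 with quencher, 45-90 min, room temperature, dark), then read 110 s after compound addition, and again 110 s after 4uM final 54-4 (EC80).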
Sfp PPTase inh = inhibitors of Bacillus subtilis Sfp phosphopantetheinyl transferase; Q9F4F7; Biochemical Sfp PPTase activity, qHTS; Potency, µM, without a hit: max response, negative = inhibition, actives largely listed as inhibitors; 310,000 compounds, 3.5% hits; AID 1490; active = well fitted inhibition curve with a large enough effect; inconclusive = small, poorly fitted or top-dose-only effect, or another doubt; inactive = no such curve, though single readings can be large or run the other way;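 note: the enzyme is Sfp with the accession as filed and its product quenches rhodamine fluorescence; potency is the fitted concentration of half-maximal effect; 0% = enzyme reaction without inhibitor and -100% = no enzyme wells; top concentration of the series not given in the record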
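Compounds were incubated with enzyme (final 15 nM) for 15 min at room temperature before substrate addition started the reaction. Fluorescence at 525 nm excitation, 598 nm emission was recorded immediately and after 30 minutes.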
Menin MLL FP FL = displaces fluorescein MLL peptide from human menin; Fluorescence polarization, fluorescein-MLL peptide displacement from menin; FP activity change, % at 61.4 µM; 290,000 tested, under 10 active; inconclusive = falling polarisation curve, or a change in total fluorescence; inactive = total fluorescence flat and polarisation flat or rising; no compound was filed as active; the % refers to the polarisation; negative = inhibition;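 note: % of control where 0% means no effect; inhibitors lower the polarisation; unlabelled MLL peptide was the positive control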
ClpP mod = qHTS Assay for Activators of ClpP | ATP-dependent Clp protease proteolytic subunit (Bacillus subtilis (strain 168)), P80244 | purified B. subtilis ClpP, FRET peptide cleavage, 20 min | Potency, µM (titrated, usually from 57.5 µM), without a hit: at the highest dose activity change, negative = active | 340,000 compounds, 1.9% hits; active = well fitted falling curve with a large enough effect; inconclusive = small, poorly fitted or top-dose-only effect; inactive = no such curve, though single readings can be large or run the other way; note: potency is the fitted concentration of half-maximal effect; the source files actives as falling curves though it sought activators and does not explain the sign; nearly all actives have a fitted effect of over 65% in size; many hits overshoot -100%
Target sequence (P80244 whole entry, looked up): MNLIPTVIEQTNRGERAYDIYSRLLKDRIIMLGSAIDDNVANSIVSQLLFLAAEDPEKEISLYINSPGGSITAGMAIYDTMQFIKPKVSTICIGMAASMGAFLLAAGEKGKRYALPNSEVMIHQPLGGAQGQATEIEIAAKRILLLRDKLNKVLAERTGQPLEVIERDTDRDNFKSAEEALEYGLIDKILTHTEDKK
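Purified B. subtilis ClpP, 10 microg/mL final in Tris/HCl pH8 with KCl, BSA, glycerol and Tween-20, cleaved an Abz/nitrotyrosine-quenched decapeptide. Fluorescence (ex 320, em 430) was read at 0 and 20 min at room temperature. Delta was normalized to 5.8 microM ADEP and DMSO/no-enzyme controls.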
TRPV1 potentiator = human TRPV1 potentiation; TRPV1-expressing cells, Fluo-8 calcium influx, capsaicin EC20 potentiation; host cell line not named in the record; control for the full effect not named in the record; potentiation, % at 8.33 µM; 320,000 compounds, 0.02% hits; active means potentiation above 80%; inconclusive means 30% to 80%; inactive means below 30%; note: 0% is about no effect
Target sequence (Q8NER1 whole entry, looked up): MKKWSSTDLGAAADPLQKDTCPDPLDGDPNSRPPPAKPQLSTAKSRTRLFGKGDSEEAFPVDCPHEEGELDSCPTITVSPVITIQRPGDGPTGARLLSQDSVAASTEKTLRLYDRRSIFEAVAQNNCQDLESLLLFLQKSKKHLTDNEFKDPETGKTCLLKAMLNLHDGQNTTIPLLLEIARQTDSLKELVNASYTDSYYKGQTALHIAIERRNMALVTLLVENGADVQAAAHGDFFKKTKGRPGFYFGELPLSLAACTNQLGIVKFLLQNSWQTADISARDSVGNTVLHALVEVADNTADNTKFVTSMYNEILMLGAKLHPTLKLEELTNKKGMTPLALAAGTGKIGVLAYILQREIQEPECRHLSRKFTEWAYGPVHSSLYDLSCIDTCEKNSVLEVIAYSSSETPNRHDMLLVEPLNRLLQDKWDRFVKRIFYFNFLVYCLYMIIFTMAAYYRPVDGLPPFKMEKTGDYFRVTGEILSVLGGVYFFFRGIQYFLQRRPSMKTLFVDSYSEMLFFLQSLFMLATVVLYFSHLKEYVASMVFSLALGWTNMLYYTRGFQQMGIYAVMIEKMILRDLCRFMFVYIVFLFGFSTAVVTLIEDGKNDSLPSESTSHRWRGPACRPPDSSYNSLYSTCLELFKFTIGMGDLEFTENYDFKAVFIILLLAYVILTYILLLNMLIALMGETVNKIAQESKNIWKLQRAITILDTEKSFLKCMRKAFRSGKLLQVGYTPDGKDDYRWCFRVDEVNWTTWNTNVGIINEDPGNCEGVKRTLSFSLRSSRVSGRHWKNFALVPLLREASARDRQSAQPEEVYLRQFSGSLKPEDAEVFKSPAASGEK
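Fluo-8 calcium influx in TRPV1-expressing cells, kinetic read (ex 480/em 520 nm). Compound added and read 3 min for agonist activity, followed by capsaicin at EC20 final and 2 min further read for enhancement.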
* hit, by the source's call; i = inactive; ? = inconclusive; . = not tested or not shown; & = joins results of further samples; [ ] = remark or other dose.

SMILES	PINK1 modulator	TRPML1 inh	TRPML1 agonist	Sfp PPTase inh	Menin MLL FP FL	ClpP mod	TRPV1 potentiator
CCOc1ccc(NC(=O)CSc2oc(-c3ccccc3)nc2S(=O)(=O)c2ccc(Cl)cc2)cc1	0.6%	2.8	0.1	.	.	0.2%	.
CC(C)CCN(C(=O)CNC(=O)c1ccco1)C(C(=O)NC1CCCCC1)c1ccco1 (stereo not drawn)	1.2%	7.6	0.2	12.5%	0.7	0.5%	-5.5
COc1ccccc1-c1nnc(SCC(=O)N2CCC(C)CC2)o1	0.0%	-5.9	1.9	6.3%	2.6	?	-21.7
CCOC(=O)c1cnc2c(C#N)c(C)nn2c1-c1ccccc1	2.9%	-4.5	-0.3	1.2%	1.7	?	-1.3
Cc1[nH]c2ccccc2c1CN1CCC(Cc2ccccc2)CC1	-0.2%	5.3	0.9	79.4µM*	0.2	0.6%	3.3
Cn1c(N)c(C(=O)COC(=O)c2ncc(Cl)c(Cl)c2Cl)c(=O)n(C)c1=O	3.7%	-11.5	-0.1	9.0%	-0.6	.	-13.7
CCOc1cc(/C=N/Nc2cc(C)nc(-n3nc(C)cc3C)n2)ccc1O	0.4%	.	.	1.4%	-0.4	-3.0%	0.8
COc1cccc(NC(=O)NCc2ccccc2F)c1	1.3%	17.1	6.0	12.1%	-2.6	1.0%	-2.7
O=C(CSCc1ccc(Br)cc1)NC1CC1	1.0%	2.5	-0.4	17.4%	-1.4	.	-7.1
O=C(Cn1ncc2c(=O)oc3ccccc3c21)NCCCN1CCCC1=O	1.6%	-2.7	0.0	-5.5%	0.5	0.7%	4.5
O=c1c2ccccc2nc(-c2ccccc2)n1Cc1ccco1	-1.5%[38.3 µM]	0.6	0.9	2.6%	0.7	-1.5%	3.3
CCC(C)[C@H]1COCCS(=O)(=O)N1Cc1ccc(Br)cc1 (stereo partly drawn)	7.0%	18.6	-0.1&-0.6	12.5%	-1.1	0.6%&-0.2%	0.2
Cc1ccc2c(c1)[nH]c1c(N3CCN(Cc4ccccc4)CC3)ncnc12	.	5.9	1.3	0.0%	-2.0	?	-1.2
COc1cccc(CN2CCNC(=O)C2CC(=O)NCCc2cccc(C)n2)c1OC (stereo not drawn)	1.1%	3.1	-0.1	16.1%	-7.8	-2.0%	3.7
O=C(c1ccco1)N1CCN(S(=O)(=O)c2cccc(Cl)c2)CC1	-1.9%	10.2	-0.2	3.1%	-0.4	-0.6%	-3.3
CN(C)S(=O)(=O)c1ccc(Cl)c(NC(=O)CN2C(=O)NC(C)(C3CC3)C2=O)c1 (stereo not drawn)	3.5%	-14.9	-0.5	8.7%	-3.0	0.7%	-12.4
CC(C)NC(=S)N/N=C/c1c[nH]c2ccccc12	10.3%	-8.0	0.0	11.6%	0.4	1.7%	-0.5
N#CC1=C2C=Cc3ccccc3N2CCCC1=O	-0.8%	21.7	-0.6	-11.6%	2.5	-6.8%	-21.1
CCOC(=O)c1ccc(Nc2cc(C)nc(C)c2C(=O)OCC)cc1	0.8%	-4.9	-0.8	16.0%	-1.5	-4.9%	-10.8
CN(C)c1ccc(/C=C/C(O)=C2/C(=O)N(C)C3(C)CC2c2ccccc2O3)cc1 (stereo not drawn)	.	.	.	-33.4%	?	.	0.6
CC1(C)CC(=O)C2=C(C1)NC(=O)CC2c1ccc(F)cc1 (stereo not drawn)	1.6%	4.4	0.8	11.7%	0.6	1.0%	8.4
O=C(c1cccc(Cl)c1)n1nc(-c2ccco2)nc1NCc1cccs1	-1.0%	-17.0	-0.7	.	.	-4.2%	.
COc1cccc(OCc2cc(C(=O)NCC3CCCCC3)no2)c1	3.4%	-13.7	-0.5	5.6%	-1.6	1.5%	-3.2
CC(NC(=O)/C=C/c1cnc2ccccc2n1)C12CC3CC(CC(C3)C1)C2 (stereo not drawn)	9.6%	14.0	0.4	-2.6%	9.5	?	-11.2
COc1ccccc1OCC(=O)NCC1CCCN(Cc2cnn(C)c2C)C1 (stereo not drawn)	-0.9%	-6.8	0.7	7.2%	.	-3.3%	4.6
The listing continues:
SMILES	PINK1 modulator	TRPML1 inh	TRPML1 agonist	Sfp PPTase inh	Menin MLL FP FL	ClpP mod	TRPV1 potentiator
CC(C)C(NC(=O)C1CCCCC1)C(=O)NCCc1ccccc1 (stereo not drawn)	-0.2%	6.7	0.2	21.2%	5.0	2.0%	4.8
CC(=O)c1ccc(OCCCC(=O)NCc2nnc3ccccn23)cc1	2.2%	6.6	0.2	.	.	.	-2.1
COc1ccc(CCNC(=O)Cn2c(=O)n(-c3ccc(F)cc3F)c(=O)c3sccc32)cc1OC	-1.9%	18.3	1.3	8.1%	-2.5	.	-0.7
O=C(CN1C(=O)C2C3C=CC(C3)C2C1=O)NCc1ccc2c(c1)OCO2 (stereo not drawn)	-1.2%	9.8	-0.1	12.3%	1.9	2.1%	-2.9
Cc1cccc(OCC(=O)N(Cc2ccc(C(C)(C)C)cc2)Cc2ccco2)c1	?	-18.3	1.5	.	.	0.2%	.
C=CCSCC1Nc2cc(Cl)c(S(N)(=O)=O)cc2S(=O)(=O)N1 (stereo not drawn)	1.1%	-7.8	-0.3	7.6%	-0.2	-0.7%	2.8
O=C(COC(=O)Cc1n[nH]c(=O)c2ccccc12)NNC(=O)c1ccccc1	1.3%	-6.6	0.1	.	.	.	-2.8
Cc1c(C(=O)NCc2ccc(Cl)c(Cl)c2)sc(=O)n1Cc1cccc(F)c1	0.2%	.	0.1	.	.	-0.2%	.
COc1cccc(NC(=O)CCC(=O)Nc2ccc3nc(N4CCOCC4)cc(C)c3c2)c1	2.3%	1.9	0.8	-1.5%	0.3	.	-10.5
O=C(NC1CCCC1)C1CCC(=O)N1C1CCCCC1 (stereo not drawn)	0.6%	-8.5	-0.3	10.4%	0.8	.	0.1
COc1ccc(C(C)(O)c2nc(-c3ccc(OC)c(OC)c3)cs2)cc1 (stereo not drawn)	0.2%	.	-0.9	.	.	-5.7%	.
C=CCn1c(-c2cccc(OCC)c2)n[nH]c1=S	-2.4%	3.3	0.1	-4.1%	-1.5	.	10.4
COc1ccc(-c2cc(C(F)(F)F)nc(SCCC(=O)NCc3ccccc3)n2)cc1	7.8%	3.0	1.8	?	1.1	12.6µM*	-15.7
CCCCN1CC(COCc2ccccc2)Oc2ccccc2S1(=O)=O (stereo not drawn)	3.5%	53.5	1.5	.	.	-3.1%	.
CCOc1ccc(NC(=O)COc2ccc(N3CC(C(N)=O)CC3=O)cc2)cc1 (stereo not drawn)	0.8%	-17.5	0.2	.	.	.	.
CC1CCCN(C(=O)c2cc(-c3ccco3)nc3ccccc23)C1 (stereo not drawn)	0.4%	-5.8	-0.5	.	.	3.8%	27.4
Cc1ccc(S(=O)(=O)NN=C2CCCc3ccccc32)cc1	0.2%	2.6	1.3	.	.	0.5%	.
CC1COc2ccccc2N1C(=O)c1ccc(Cl)cc1 (stereo not drawn)	3.2%	8.5	-1.1	12.2%	-3.8	-0.1%	0.5
CCC(=O)N1CCc2cc(CNC(=O)Cc3ccc(F)cc3)ccc21	-0.5%	-16.7	0.9	.	.	-0.5%	.
Cc1cccc(CN2CCN(C3CN(C4CCCC4)S(=O)(=O)C3)CC2)c1 (stereo not drawn)	0.0%	.	-0.1	.	.	-2.3%	.
CN(C)c1ncc2nc(CCc3ccccc3)c(=O)n(C3CC3)c2n1	1.4%	.	.	-25.3%	10.5	.	.
O=C(NCc1csc(-c2cccs2)n1)C1CCC1	0.7%	35.3	-0.8	13.6%	3.2	4.4%	9.0
CCCOc1ccc(C(=O)N(CC(C)C)c2c(N)n(Cc3ccccc3)c(=O)[nH]c2=O)cc1	17.7%	0.5	1.2	.	.	.	-8.9
CCOCCCn1c(SCC(=O)Nc2ccc(C(N)=O)cc2)nc2ccccc2c1=O	9.1%	16.7	-0.1	10.0%	0.1	-2.5%	-0.2
O=C(NCCN1CCCCC1)c1c(O)c2ccccc2[nH]c1=O	0.0%	-6.4	0.5	14.1%	-3.6	-5.2%	1.5
New compounds follow
SMILES	PINK1 modulator	TRPML1 inh	TRPML1 agonist	Sfp PPTase inh	Menin MLL FP FL	ClpP mod	TRPV1 potentiator
Cc1cc(NC(=O)/C=C/c2cccc(Cl)c2)n(-c2nc3ccccc3[nH]2)n1	14.7%	-9.7	0.7	-2.8%	-4.5	-17.6%	-8.6
O=C(O)c1ccc(C2Nc3ccccc3-c3nnc(SCc4ccc(Cl)cc4)nc3O2)cc1 (stereo not drawn)	0.6%	9.2	0.1	.	.	0.9%	.
COc1ccc(CNS(=O)(=O)NCc2ccccc2)cc1	-1.0%	11.0	0.5	-19.7%	2.9	.	-2.7
CCN(CC)c1ccc(C2C(C(=O)OCCOC)=C(C)NC3=C2C(=O)CCC3)cc1 (stereo not drawn)	.	4.8	0.1	-2.5%	-2.6	-3.7%	7.6
COc1c(Cl)cc(Cl)cc1CNCCNCC(C)O (stereo not drawn)	0.5%[38.3 µM]	1.2	-0.3	-4.8%	-1.2	0.2%	.
Cc1ccc(-n2nnnc2SCc2ccccn2)cc1C	0.5%	-15.9	-0.5	5.6%	-0.6	-1.0%	-9.8
COc1ccc(S(=O)(=O)N2CCC(C(N)=O)CC2)c2ccccc12	-0.6%	13.7	0.8	-2.1%	-0.3	-0.7%	-1.8
CCN(Cc1ccccc1)N=Nc1ccccc1	10.1%	11.1	1.0	.	.	1.0%	.
Cc1noc(-c2ccc(N(C)Cc3ccccc3)c([N+](=O)[O-])c2)n1	1.0%	64.1	-0.5	.	.	-3.8%	.
Clc1ccc(-c2nc3ccccc3n2OCc2ccccc2)cc1	8.5%	50.7	1.8	1.8%	1.0	4.1%	-6.3
CCc1nc2c(OCc3ccc(F)c(F)c3)cccn2c1N(C)C(=O)C1CC1	2.6%	.	-0.4	.	.	-2.1%	.
O=S(=O)(c1ccc(NC(=S)N/N=C/c2ccc(O)c(O)c2)cc1)N1CCOCC1	6.7%	-3.1	0.4	-4.1%	3.1	.	-1.4
CCN(CC)C(=O)c1sc2c(c1C)c(=O)n(-c1ccc(C)c(C)c1)c(=O)n2CC(=O)NCC1CCCO1 (stereo not drawn)	1.1%	-4.4	0.2	2.5%	-3.2	.	-5.7
CCCC[C@]12Cc3ccccc3C(O1)c1c(c3ccccc3oc1=O)O2	.	.	.	17.3%	-3.1[11.7 µM]	.	i
O=C1/C(=C\c2cccc([N+](=O)[O-])c2O)SC(=S)N1Cc1ccccc1	?	43.0	1.5	?	29.5	-0.7%	18.7

Bioassay records as filed in PubChem BioAssay.

This is a random part of the collection; any-hit rate near 4.4%.
